# Assay outcomes: PubChem, several laboratories
# E coli growth: E. coli growth inhibition | Escherichia coli growth, OD600, 23 h; stronger effect = lower value | OD600 absorbance (concentration not given with the values) | actives 0.21% (n = 330,000);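 active = OD600 absorbance below the run mean of sample wells minus 3.6 SD, in any replicate, cut at about 0.56 in these data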;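 also: stock transfer was 300 nL into about 60 µL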
# Vif TR-FRET: HIV-1 Vif–A3G interaction blockers – biochemical, TR-FRET, GST-Vif 1-94, biotin-A3G peptide, dose response retest, primary screen (AID 1117319); TR-FRET GST-Vif / biotin-A3G peptide binding; higher % means a stronger effect; test concentration not given here; strong numbers were not always called active; actives 0.57% (n = 260,000); inhibition, %; hits with a dose series show IC50 in µM;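 active = above the screen mean plus three standard deviations and confirmed in dose response; inconclusive = results disagree or hit not tested in dose response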;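 also: Vif residues 1-94 fused to GST binding biotinylated APOBEC3G peptide 110-148; 0% = full assay without inhibitor and 100% = GST in place of GST-Vif; retest series ran down from 100 µM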
# HNF4A DNA FP: change in binding of human HNF4 alpha to DNA | activity change, % at 10 µM | HNF4a-FITC DNA binding, fluorescence polarization, 1 h | P41235 | actives 0.3% (n = 360,000); in the data active = activity change above about 30%, passing the limit was not always enough;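 also: controls were the assay level and a saturating level of protein; the project sought stronger binding though the title names inhibitors; some compounds called inactive have numbers as strong as hits; positive values seem to mean higher polarization but the record does not say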
# MLL AF4-AF9 inh: MLL-AF4/AF9 protein interaction inhibition | P42568 | AlphaScreen, biotin-AF4 peptide binding to FLAG-AF9 | inhibition, % at 10 µM | actives 0.47% (n = 350,000) | AID 651704;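 active = every replicate reaching a set inhibition limit, whatever the replicate mean, cut at about 25% in these data; inconclusive = mean inhibition reaches that limit but some replicates miss it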;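 also: 0% = plate neutral control median and 100% = total signal loss; the record names both 10 and 1 µM as test concentration; the first replicate is given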
# Target sequence (P42568 whole entry, looked up): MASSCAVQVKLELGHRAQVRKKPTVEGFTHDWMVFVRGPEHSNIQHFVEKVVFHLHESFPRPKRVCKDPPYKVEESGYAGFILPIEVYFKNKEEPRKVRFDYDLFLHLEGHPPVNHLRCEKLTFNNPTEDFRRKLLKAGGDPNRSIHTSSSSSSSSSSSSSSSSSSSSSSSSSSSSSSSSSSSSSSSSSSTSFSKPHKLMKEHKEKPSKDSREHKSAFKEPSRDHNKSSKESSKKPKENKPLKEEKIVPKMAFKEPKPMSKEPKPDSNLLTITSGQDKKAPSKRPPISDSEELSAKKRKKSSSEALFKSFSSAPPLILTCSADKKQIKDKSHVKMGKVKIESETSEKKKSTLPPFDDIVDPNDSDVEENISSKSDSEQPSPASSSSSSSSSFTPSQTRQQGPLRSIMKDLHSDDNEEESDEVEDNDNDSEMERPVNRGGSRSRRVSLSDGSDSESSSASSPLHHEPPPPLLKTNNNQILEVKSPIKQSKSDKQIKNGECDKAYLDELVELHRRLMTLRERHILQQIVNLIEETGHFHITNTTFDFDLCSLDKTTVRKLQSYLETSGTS
# RanGTP-Impb inh: disruptors of Ran-importin-beta complex formation – biochemical, FRET, CFP-Ran, YFP-importin-beta, homogeneous, primary screen; inhibition, % (test concentration not listed); actives 1.1% (n = 300,000); AID 2216; cell-free CFP-Ran/YFP-importin-beta FRET ratio;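 active = most replicates above 15%; inconclusive = exactly half above 15%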;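 also: 0% = DMSO wells and 100% = Ran loaded with GDP instead of GTP; wells of about 40 µL received 100 nL stock; the first replicate is given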
# UCH37 inh: blocks the human deubiquitinase UCH37 | Q9Y5K5 | purified proteasome/UCH37, Ub-AMC cleavage fluorescence | inhibition, % (concentration not given with the values) | actives 0.33% (n = 330,000) | AID 588478;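 active = mean of two replicates above 20%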;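 also: 0% = compound-free wells with enzyme and 100% = wells lacking proteasome; stock transfer was 100 nL into about 20 µL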
# Target sequence (Q9Y5K5 whole entry, looked up): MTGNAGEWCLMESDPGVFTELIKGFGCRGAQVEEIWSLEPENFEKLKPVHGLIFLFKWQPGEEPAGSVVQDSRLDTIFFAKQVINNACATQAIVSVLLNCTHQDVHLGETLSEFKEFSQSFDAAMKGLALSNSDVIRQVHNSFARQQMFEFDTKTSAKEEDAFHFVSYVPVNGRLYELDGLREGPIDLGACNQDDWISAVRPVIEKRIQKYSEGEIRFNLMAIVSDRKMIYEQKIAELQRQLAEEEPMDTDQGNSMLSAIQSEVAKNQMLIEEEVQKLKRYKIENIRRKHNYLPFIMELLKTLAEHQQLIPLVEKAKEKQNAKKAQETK
#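 Material: Human UCH37 enzyme supplied as purified proteasome complex | Schedule: 30 min compound-proteasome preincubation then 25 min substrate reaction, room temperature | Detection: AMC fluorescence from Ub-AMC cleavage, excitation 355 nm, emission 460 nm | Benchmarks: Wells without proteasome as full block, compound-free enzyme plus substrate as uninhibited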
# FGF22 binding: shifts melting point of recombinant human FGF22; Q9HCT0; recombinant FGF22 thermal shift, SYPRO orange fluorescence; percent of sucrose octasulfate shift, DMSO zero; calls only at 9.99 µM; actives 1.5% (n = 340,000); AID 651658;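 active = melting point raised past a set limit in the mean and every replicate; inconclusive = no clear call; three in four hits are not shown here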
# Target sequence (Q9HCT0 whole entry, looked up): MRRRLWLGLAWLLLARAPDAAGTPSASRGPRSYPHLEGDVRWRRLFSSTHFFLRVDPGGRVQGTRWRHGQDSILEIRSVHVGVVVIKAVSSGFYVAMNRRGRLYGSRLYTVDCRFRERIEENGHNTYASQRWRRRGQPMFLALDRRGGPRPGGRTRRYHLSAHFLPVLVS
# * marks the source's active call; other numbers are inactive results; i = inactive; ? = inconclusive; . = not tested or not shown; & = joins results of further samples. The list is partial; rates above refer to the full screens.
SMILES,E coli growth,Vif TR-FRET,HNF4A DNA FP,MLL AF4-AF9 inh,RanGTP-Impb inh,UCH37 inh,FGF22 binding
O=C(CN1C(=O)NC2(CCCCC2)C1=O)N1CCN(S(=O)(=O)c2ccccc2)CC1,0.63,-7.0%,2.9,-2.6,1.7,1.8,i
CC(C)(C)C(=O)NC(=S)NCc1ccccc1,0.657,0.1%,-1.6,.,0.0,0.9,.
O=C(Cc1ccc([N+](=O)[O-])cc1)N1N=C2CCCCC2C1(O)C(F)(F)F (stereo unspecified),0.638,.,0.6,.,6.4,2.9,i
Cc1cc(=O)c(C(=O)O)nn1-c1ccccc1[N+](=O)[O-],0.648,?,1.4,1.1,-1.3,0.8,i
COc1ccc(-c2nc(CSCC(=O)N3CCN(C4CCCCC4)CC3)c(C)o2)cc1OC,0.743,-1.6%,0.5,-5.4,-3.6,5.4,i
Cc1oc(-c2cccs2)nc1CS(=O)CC(=O)NCc1ccc2c(c1)OCO2 (stereo unspecified),0.679,-0.9%,0.8,-11.3,-0.7,3.7,.
CCN(CC)C(=S)Nc1ccc([N+](=O)[O-])cc1,0.691,2.4%,-5.6,.,3.4,6.6,.
COc1cccc(-c2cc3onc(-c4ccccc4)c3c(=O)n2C)c1,0.71,.,-0.3,-5.3,.,2.6,i
COc1cccc(CN2CCN(C(=O)CC(C)C)CC2)c1,0.666,13.8%,-0.4,.,-3.5,3.1,.
Cc1nc2nc(COc3ccccc3)[nH]n2c(=O)c1C,0.658,5.5%,0.7,.,-1.9,-0.3,.
CC1CCCC(C)N1C(=O)CSc1nnc(-c2c[nH]c3ccccc23)o1 (stereo unspecified),0.649,-2.8%,1.1,3.9,3.0,3.5,i
CN(C(=O)CN1C(=O)c2ccccc2S1(=O)=O)c1ccccc1C(=O)O,0.648,2.4%,1.9,.,-0.8,0.6,.
Cc1nnc2c(N3CCN(C(=O)c4ccco4)CC3)nc3ccccc3n12,0.728,.,1.5,1.6,0.3,5.3,i
Cc1ccc(S(=O)c2ccc([N+](=O)[O-])c3nonc23)cc1 (stereo unspecified),.,15.3%,9.8,2.4,.,.,i
CCN(c1ccccc1)S(=O)(=O)c1ccc2c(c1)OCCO2,0.682,.,2.6,-3.1,.,-0.1,i
C#CCNC(=O)C1=C[C@@H](c2ccc(C#C)cc2)[C@H](CCCO)[C@@H](OCC)O1,.,4.8%,-5.4,-18.8,-0.9,4.0,i
COC(=O)c1c(NC(=O)c2cccc(N3C(=O)CCC3=O)c2)sc2c1CCN(C(C)=O)C2,0.71,.,-0.7,-8.5,1.0,5.2,i
Cc1cccc(NCc2nc(-c3ccccc3)no2)c1,0.767,11.7%,1.1,0.5,10.6,3.2,i
CCOc1ccc(C(=O)Nc2cccc(C(=O)O)c2C)cc1Cl,0.719,.,-1.5,2.1,1.3,2.5,i
CC(C)/C(=N\NC(=O)Nc1ccccc1)c1ccccc1,.,24.2%,-2.5,.,0.9,.,.
COc1ccc(N(CC(=O)NCc2ccccc2OC)S(=O)(=O)c2ccc(C)cc2)cc1Cl,0.755,.,-2.1,1.7,0.0,4.7,i
CC(=O)c1cccc(NC(=O)CCC(=O)c2ccc(F)cc2)c1,0.666,-11.8%,6.0,0.0,0.2,1.8,i
O=S(=O)(c1ccc(F)cc1)N1CCN(CC(O)COc2ccccc2F)CC1 (stereo unspecified),0.675,-13.0%,-1.8,-0.6,2.0,2.4,i
Cc1cc(NC(=O)Nc2cccc(C)c2C)no1,0.635,11.2%,2.0,-0.3,0.7,0.3,i
O=C(CCC(=O)n1ncc2ccccc21)NCc1ccccc1Cl,0.702,.,0.3,3.6,2.7,0.4,i
COc1ccc(-n2nnnc2-c2cn(C)nc2C(F)(F)F)cc1,0.746,-0.1%,-4.0,.,-2.0,2.0,.
Cc1cc(S(=O)(=O)N2CCOCC2)ccc1OCC(=O)NCCCn1ccnc1,0.677,.,-0.2,-0.6,2.2,-0.1,i
C[C@H](CO)N1C[C@H](C)[C@@H](CN(C)C(=O)Nc2ccc(C(F)(F)F)cc2)Oc2c(NS(=O)(=O)c3cn(C)cn3)cccc2C1=O,0.737,.,-3.4,-3.5&3.8,.,2.1,i
COCCCn1c(=N)c(C(=O)NC2CCCCC2)cc2c(=O)n3ccccc3nc21,0.67,4.3%,-1.2,.,192.1*,i,.
CCOc1ccc(S(=O)(=O)NC(C)C(=O)NC2CCCC2)cc1 (stereo unspecified),0.653,.,0.3,-1.2,-7.0,2.1,i
Cc1ccc(N(C(=O)c2ccc(S(=O)(=O)N3CCCC3)cc2)C2C=CS(=O)(=O)C2)cc1 (stereo unspecified),0.717,-6.6%,-2.0,-4.6,3.3,-1.9,i
COc1ccc(C(=O)N/C(=C/c2cccs2)C(=O)NC(C)(C)C)cc1OC,0.688,4.0%,-5.2,-1.5,.,6.8,i
Cc1nn(CC(=O)Nc2ccc3c(c2)OCCO3)c(C)c1[N+](=O)[O-],0.651,-4.2%,1.1,3.4,.,0.1,i
Cc1ccc(NC(=O)c2ccc(NCCN)c([N+](=O)[O-])c2)cc1Cl,0.527,6.9%,8.1,8.2,-2.3,7.1,i
COc1ccccc1N1CCN(C2CCCN(C(=O)c3snnc3C)C2)CC1 (stereo unspecified),0.704,.,3.2,-0.6,-0.8,1.8,i
CCN(CCCNC(=O)CN1C(=O)COc2ccc(S(=O)(=O)N3CCC(C)CC3)cc21)Cc1ccccc1,0.671,.,2.2,4.2,3.3,1.2,i
O=C(Nc1ccccc1Cl)c1ccc(S(=O)(=O)NCC2CCCO2)cc1 (stereo unspecified),0.644,.,0.1,-2.6,-0.1,3.9,i
c1coc(CN(Cc2ccco2)c2ncnc3c2oc2ccccc23)c1,0.697,?,-0.3,.,-3.2,3.0,.
Cc1ccccc1OCC(O)Cn1c(=N)n(CCN2CCOCC2)c2ccccc21 (stereo unspecified),0.67,1.5%&-5.6%,-1.0&-1.9,-2.8,1.3&-2.5,4.5,i
CC(C)(C)N1C(=O)c2ccccc2NC(=O)C1C(=O)Nc1ccc(N2CCOCC2)cc1 (stereo unspecified),.,.,2.5,-2.6,.,.,i
CCOC(=O)N1CCN(C(=O)c2cc3cc(OC)c(OC)cc3[nH]2)CC1,0.668,-8.6%,6.5,-2.6,1.1,-28.6,i
COc1ccc(C(=O)NNC(=O)c2snnc2C)cc1,0.676,6.2%,2.7,2.2,2.6,4.4,i
COc1ccc(-c2c(C)n([O-])c3c([n+]2=O)CCC3)cc1OC,0.733,0.7%,3.6,.,-2.8,1.1,.
C[C@H](c1ccccc1)N1C[C@H](COCc2ccccc2)Oc2cc(N3CC[C@H](N(C)C)C3)ccc2S1(=O)=O,.,.,1.9,14.5,.,.,i
Cc1ccccc1OCC(=O)N(Cc1ccc(N(C)C)cc1)C1CCS(=O)(=O)C1 (stereo unspecified),0.66,1.0%,4.9,.,.,-2.7,.
O=C(O)CC(NC(=O)CCc1ccccc1)c1ccc(Cl)cc1 (stereo unspecified),0.699,-0.9%,0.9,-7.4,0.6,3.1,i
COc1ccc(S(=O)(=O)N2CCOCC2)cc1NC(=O)Cc1ccc2c(c1)OCCO2,0.677,-9.2%,5.6,-0.1,.,0.9,i
Cc1nn(S(=O)(=O)c2ccc(F)cc2)c(C)c1S(=O)(=O)N1CCOCC1,.,.,-0.7,2.1,4.0,.,i
O=C(NCc1ccc(-c2nc3ccccc3s2)cc1)c1ccco1,0.666,19.9%,-1.8,-3.8,4.6,1.0,i
O=C(NC(Cc1ccccc1)C(=O)O)C1CCN(S(=O)(=O)c2cccc(C(F)(F)F)c2)CC1 (stereo unspecified),0.652,4.7%,-1.0,-2.7,3.9,3.9,i
COc1ccc2oc(C(=O)NC(C)(C)C)c(C)c2c1,0.663,.,0.0,-2.4,-2.9,-16.9,i
N#C/C(=C/c1ccc(OCc2ccc(C(=O)O)cc2)cc1)C(=O)Nc1ccccc1,0.668,0.1%,-2.0,.,-2.9,3.3,.
CC(C)(C)C1CCC(=NNc2nc3ccccc3[nH]2)CC1 (stereo unspecified),0.666,12.3%,-1.6,10.4,3.3,-8.8,.
O=C1c2ccccc2-c2nnc(-c3ccc(F)cc3)cc21,0.658,6.8%,-0.1,2.0,-1.3,2.4,i
COCCNc1nc2cc(-c3cccc(C(F)(F)F)c3)sc2c(=O)n1C,.,.,4.5,-0.8,.,.,i
O=C(NCc1ccc(F)cc1)C1CC(=O)N(C2CCCCC2)C1 (stereo unspecified),0.639,.,8.1,-2.0,-3.7,4.1,i
OC[C@H]1O[C@@H](c2nc(-c3ccc(Br)cc3)no2)C[C@@H]1O,.,.,-2.3,0.3,.,.,i
CCc1nnc(NC(=O)C2CCCN2C(=O)Nc2ccc(Cl)cc2)s1 (stereo unspecified),0.66,.,-29.0,-1.3,3.0,7.6,i
COc1cccc(CNC(=O)c2ccncc2)c1,0.653,4.8%,-0.2,1.3,5.3,-3.2,i
Cc1nc(=O)c(-c2ccccc2)c(C)n1-c1ccc(O)cc1,0.68,25.9%,1.4,.,7.2,3.0,.

# 3 structures from above, ordered by SMILES length, lowest first:
SMILES,E coli growth,Vif TR-FRET,HNF4A DNA FP,MLL AF4-AF9 inh,RanGTP-Impb inh,UCH37 inh,FGF22 binding
COc1ccc(C(=O)NNC(=O)c2snnc2C)cc1,0.676,6.2%,2.7,2.2,2.6,4.4,i
Cc1nn(S(=O)(=O)c2ccc(F)cc2)c(C)c1S(=O)(=O)N1CCOCC1,.,.,-0.7,2.1,4.0,.,i
N#C/C(=C/c1ccc(OCc2ccc(C(=O)O)cc2)cc1)C(=O)Nc1ccccc1,0.668,0.1%,-2.0,.,-2.9,3.3,.

# (more compounds)
SMILES,E coli growth,Vif TR-FRET,HNF4A DNA FP,MLL AF4-AF9 inh,RanGTP-Impb inh,UCH37 inh,FGF22 binding
Cc1cc(C)c(C(=O)COC(=O)CCNS(=O)(=O)c2c(Cl)cccc2Cl)cc1C,0.652,.,-2.2,.,-2.0,5.8,.
CN(C)S(=O)(=O)c1ccc(Cl)c(NC(=O)COC(=O)[C@@H]2CCCN2C(=O)c2cccs2)c1,0.682,10.8%,0.7,2.0,-1.0,-2.1,i
CCCOC(=O)/C(C)=N\NC(=O)c1ccco1,.,19.6%,-5.8,.,1.8,.,.
CCCc1c(C)c2ccc(OCC(C)=O)cc2oc1=O,0.751,-9.9%,1.5,.,6.2,-138.5,.
COC(CNC(=O)c1cc(C(=O)c2c(-c3c(Cl)cccc3Cl)noc2C)c[nH]1)OC,0.778,-4.1%,-4.0,.,4.0,5.6,.
Cc1ccc(S(=O)(=O)Nc2ccccc2C=Nc2cccc(C)c2C)cc1,0.701,.,-1.3,1.8,-2.4,5.2,i
COC(=O)c1ccccc1NC(=O)CN(Cc1ccccc1)S(C)(=O)=O,0.691,1.0%,3.9,.,5.3,0.1,.
CCOC(=O)c1ccccc1NC(=O)CN1C(=O)NC(C)(CCc2ccccc2)C1=O (stereo unspecified),0.639,0.5%,2.4,2.1,-0.6,0.0,i
Cc1cc(=O)[nH]c(Nc2ccc(C(=O)OC(C)C)cc2)n1,0.687,7.7%,11.4,.,1.0,0.0,.
O=C(/C=C/c1cn(-c2ccccc2)nc1-c1cccnc1)NCCN1CCOCC1,0.712,0.0%,-2.9,2.4,-0.8,2.8,i
COc1cccc(NC(=O)N2CCC(NC(=O)C3CCCCC3)CC2)c1,0.704,-2.9%,3.2,-1.7,0.9,1.9,i
O=C(CSc1nnc(Cn2cnc3ccccc32)o1)Nc1cccc2ccccc12,0.667,-6.6%,2.3,.,-2.7,5.1,.
